VDR inh – inhibitors of human vitamin D receptor; VDR-SRC2-3 peptide fluorescence polarization, 2 h; AID 504847; 400,000 compounds, 0.93% hits; P11473; Potency, µM, for inactives: max response, negative = inhibition, actives largely listed as inhibitors; active = well fitted inhibition curve with a large enough effect; inconclusive = small, poorly fitted or top-dose-only effect, or another doubt; inactive = no such curve, though single readings can be large or run the other way; also: series mostly up to about 120 µM
Target sequence (P11473 whole entry, looked up): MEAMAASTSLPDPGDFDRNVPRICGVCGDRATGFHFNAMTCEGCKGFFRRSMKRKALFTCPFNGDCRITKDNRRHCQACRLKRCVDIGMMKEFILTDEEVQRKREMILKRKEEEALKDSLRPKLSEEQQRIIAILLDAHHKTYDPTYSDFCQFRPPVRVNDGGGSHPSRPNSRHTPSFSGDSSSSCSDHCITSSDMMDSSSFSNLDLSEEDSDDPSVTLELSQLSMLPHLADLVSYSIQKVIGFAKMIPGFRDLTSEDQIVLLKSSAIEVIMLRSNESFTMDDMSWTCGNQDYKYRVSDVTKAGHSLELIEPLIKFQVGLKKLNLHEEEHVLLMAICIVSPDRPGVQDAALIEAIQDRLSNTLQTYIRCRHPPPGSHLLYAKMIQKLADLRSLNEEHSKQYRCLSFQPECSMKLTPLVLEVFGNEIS
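Measured by FP: displacement of SRC2-3 coactivator peptide from VDR by library compounds, following a two-hour ambient incubation.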
An asterisk follows results filed as active; ? = inconclusive; & = joins results of further samples. % is scaled to controls: 0 for no effect and ±100 for the full control effect; potency is read from the fitted curve at half-maximal effect.

SMILES	VDR inh
Cc1ccc(NC(=O)c2cccs2)cc1NC(=O)c1cccnc1	-10%
Cc1cc(CN2CCN(CCC#N)CC2)c(O)c(C2(C)CCCCC2)c1	11%
Cc1nc(NC(=O)CSc2nc3cccnc3n2C2CCCCC2)sc1C	-8%
CCOc1ccc(NC(=O)c2ccc3c(=O)n4nc(Nc5ccccc5C)sc4nc3c2)cc1	-5%
COc1ccc(CNC(=O)C2CCN(S(=O)(=O)N3CCC(C)CC3)CC2)c(OC)c1	6%
C=CCC(C)(O)C#Cc1ccccc1 (configuration not stated)	4%
Cc1ccc2nnn(Cc3cccc(C(C)(C)C)c3O)c2c1	-14%
Cc1csc(NC(=O)CCCSc2nc3ccccc3s2)n1	28%
CC(C)NC(=O)N1CCCC2(CCN(C(=O)c3cccc(F)c3)CC2)C1	11%
Cc1ccc(N2C(=O)NC(C(F)(F)F)(C(F)(F)F)C3=C2CC(C)(C)CC3=O)cc1	10%
Cc1cccc(NC(=O)/C(C#N)=C\c2cc(C)n(-c3ccc(C(=O)O)cc3)c2C)c1	-12%
COc1ccccc1N1CCN(S(=O)(=O)CCNC(=O)C2CC2)CC1	-9%
CC(=O)NC1CC2CCCC(C1)N2C(=O)Nc1ccc(Cl)c(C(F)(F)F)c1 (configuration not stated)	1%
CCNC(=S)N(Cc1c(C)noc1C)c1ccccc1	4%
Cc1nc(Nc2ccc3c(c2)OCO3)c2oc3ccccc3c2n1	-4%
CCN(C(=O)c1coc(=O)c(Br)c1)c1ccc2c(c1)OCO2	?
COCCCNC(=O)c1ccc(CN2CCc3ccccc3C2)cc1	-10%
COc1cc(OC)c(OC)cc1CCC(C)NC(=O)Cc1ccccc1 (configuration not stated)	5%
CC(C)c1ccc(S(=O)(=O)N2CCN(CC(=O)Nc3ccccc3C(F)(F)F)CC2)cc1	16%
Cc1ccc(-n2nnnc2SCC(=O)c2c(N)n(C3CC3)c(=O)[nH]c2=O)cc1C	-1%
COc1ccc(NCC(=O)N/N=C/C(C)c2ccccc2)cc1 (configuration not stated)	-22%
COc1cc(C)nc2nc(SCc3ccccc3)nn12	-13%
CC(C)Sc1nc2ccccc2c(=O)[nH]1	-5%
COc1ccccc1CN1CCNC(=O)C1CC(=O)NC1Cc2ccccc2C1 (configuration not stated)	-2%
CC(C)(C)c1ccc(C(CC(=O)O)NC(=O)CCCc2ccccc2)cc1 (configuration not stated)	4%

Quoted from the listing.
`CC(C)c1ccc(S(=O)(=O)N2CCN(CC(=O)Nc3ccccc3C(F)(F)F)CC2)cc1` @ VDR inh: 16%
`COc1ccc(CNC(=O)C2CCN(S(=O)(=O)N3CCC(C)CC3)CC2)c(OC)c1` @ VDR inh: 6%
`Cc1cccc(NC(=O)/C(C#N)=C\c2cc(C)n(-c3ccc(C(=O)O)cc3)c2C)c1` @ VDR inh: -12%

Next structures follow.
SMILES	VDR inh
CC(C)OC(=O)CSc1n[nH]c(-c2cccnc2)n1	19%
CCn1c(=O)c2cc(C(=O)Nc3cccc(C(F)(F)F)c3)sc2c2ccccc21	-14%
Cc1cccc(CSc2nnc(NC(=O)c3ccco3)s2)c1	6%
O=c1cc(-c2cc3ccccc3o2)c2cc(O)ccc2o1	21%
C[C@](N)(C(=O)O)c1ccc(-c2nn[nH]n2)cc1	-6%
Cc1ccccc1C(=O)Nc1ccccc1C(=O)OCc1cc(=O)n2nc(C3CC3)sc2n1	17%
C=CCNC(=O)c1ccccc1NC(=O)c1ccccc1C	-3%
N#CC(=C(O)COC(=O)CCC1CCCCC1)c1nc2ccccc2[nH]1	4%
Cc1cccc(NC(=O)CN2C(=O)N/C(=C/c3ccc(-c4cccc(C(=O)O)c4C)o3)C2=O)c1	-8%
Cc1ccc(S(=O)(=O)CC(=O)Nc2nc3ccc(S(N)(=O)=O)cc3s2)cc1	-8%
O=C(Cn1cc(C(F)(F)F)ccc1=O)NC(c1ccccc1)c1ccccc1	1%
CC(=O)N1CC(C(=O)Nc2ccc3c(c2)OCO3)Oc2ccccc21 (configuration not stated)	1%
COc1ccccc1NC(=O)Cn1cnc2c(nc3n2CCCCC3)c1=O	-14%&9%
O=C(CSc1nncc(=O)[nH]1)NCc1ccccc1	6%
O=C(C1CCC(Cn2c(=O)c3sccc3n(Cc3ccccc3F)c2=O)CC1)N1CCOCC1 (configuration not stated)	7%
CC(C)OP(=O)(OC(C)C)C1(NS(=O)(=O)c2ccc(Cl)cc2)C=C(Cl)C(=O)C(Cl)=C1	-4%
CCc1ccccc1NC(=O)c1ccc(NS(C)(=O)=O)cc1	-4%
O=C1CC/C=C\C[C@@H](CC(=O)N(CCO)Cc2ccccc2)C(=O)NCCO1	9%
CCc1ccc2nc(N3CCN(C)CC3)c(C#N)cc2c1	-7%
Cc1ccc(NC(=O)Cn2cc(S(=O)(=O)c3ccc(F)cc3)c(=O)c3cc(F)ccc32)cc1	?
Cc1cc(C(=O)N/N=C/c2cccc(Cl)c2Cl)no1	-10%
O=C(C/C=N\OCc1ccc([N+](=O)[O-])cc1)Nc1ccc(Br)cc1	0%
CC(C)(C)OC(=O)N1CCC(Cc2cc(-c3cccc(Br)c3)no2)(C(=O)O)CC1	3%
CC(=O)N1N=C(c2ccc(Cl)cc2)OC1c1ccc(C(C)C)cc1 (configuration not stated)	-9%
O=C(Cn1cnc2ccccc21)NC(c1ccccc1)c1ccccc1	-7%

Molecules shown so far that have an aryl thioether with sulfur outside any ring:
SMILES	VDR inh
Cc1nc(NC(=O)CSc2nc3cccnc3n2C2CCCCC2)sc1C	-8%
Cc1csc(NC(=O)CCCSc2nc3ccccc3s2)n1	28%
Cc1ccc(-n2nnnc2SCC(=O)c2c(N)n(C3CC3)c(=O)[nH]c2=O)cc1C	-1%
COc1cc(C)nc2nc(SCc3ccccc3)nn12	-13%
CC(C)Sc1nc2ccccc2c(=O)[nH]1	-5%
CC(C)OC(=O)CSc1n[nH]c(-c2cccnc2)n1	19%
Cc1cccc(CSc2nnc(NC(=O)c3ccco3)s2)c1	6%
O=C(CSc1nncc(=O)[nH]1)NCc1ccccc1	6%

(continued)
SMILES	VDR inh
COc1ccccc1CNC(=O)CCC(=O)Nc1nnc(C(C)C)s1	-17%
Cc1ccc(CNC(=O)C(c2ccccc2)c2ccccc2)cc1	2%
CCn1ccc2cc(S(=O)(=O)N3CCCN(C(=O)NCC(C)C)CC3)ccc21	9%
CCOC(=O)N1CCC(NC(=O)c2ccc3c(Cl)c4c(nc3c2)CCCC4)CC1	7%
CCCCCCCCCCCCC(O)C(=O)O (configuration not stated)	0%&-6%
O=C(c1cccn2c(=O)c3ccccc3nc12)N1CCN(c2ccccn2)CC1	-2%
Cc1nc(NC(=S)NC(=O)COc2ccc(Cl)cc2)ccc1Br	-21%
Cc1ccc(N(C(=O)C2CCCC2)C2C=CS(=O)(=O)C2)cc1C (configuration not stated)	-12%
COCCNC(=O)c1ccc(-n2c(-c3ccccc3)cc3c2CCC(C)C3)cc1 (configuration not stated)	-7%
Cc1ccc2occ(/C=N/NC(=O)c3ccc(Cl)cc3)c(=O)c2c1	-11%
Cc1ccc(-c2cc(C(=O)N3CC(C)CC(C)C3)c3ccccc3n2)o1 (configuration not stated)	?
COc1cc(C(=O)Nc2nnc(S(=O)(=O)N3CCCCCC3)s2)cc(OC)c1OC	-13%
C=CCn1c(-c2ccccc2)nc(=S)c2c1CCCC2	-5%
O=C(c1ccc(F)cc1)C1CCN(C(=O)c2ccc(Cl)cc2)CC1	9%
COCCN(C(=S)Nc1cccc(Cl)c1C)C(C)c1ccco1 (configuration not stated)	17%
Cc1cc2c(ncn2Cc2ccccc2)c(N)c1C	-10%
CCOC(=O)CCCn1ccc2cc(S(=O)(=O)N3CCCC3)ccc21	-5%
CCn1ccc2cc(S(=O)(=O)N3CCCN(C(=O)Nc4ccccc4OC)CC3)ccc21	-9%
CC(C)(C)N=Cc1cc(-c2ccccc2)sc1O	-13%
CC(C)(C)OC(=O)N[C@@H](Cc1ccccc1)c1nnc(SCC(=O)O)o1	-8%
CCCOc1ccc(CNC(=O)C2CCN(c3nnc(N4CCCC4=O)s3)CC2)cc1	-6%
O=C1CCN(Cc2ccccc2)S(=O)(=O)c2c(F)cc(F)cc21	-21%
Cc1ccc(S(=O)(=O)N2CCN(C(=O)Cc3ccccc3)CC2)cc1	1%
CCCCCOC(=O)CSc1nc2sc3c(c2c(=O)n1Cc1ccccc1)CC(C)(CC)OC3 (configuration not stated)	-3%
COCCNC(=O)c1onc(CSc2ccc(C(C)C)cc2)c1C(=O)O	-8%
SMILES	VDR inh
O=S(=O)(Nc1cccc(CCc2ccccn2)c1)c1ccc2ccccc2c1	-5%
CC1=C(C(=O)Nc2ccccc2)C(c2ccc(Cl)cc2)n2c(s/c(=C/c3cccc(OCC(=O)O)c3)c2=O)=N1 (configuration not stated)	?
COCCNS(=O)(=O)c1ccc(C2CNC(=O)C2)cc1 (configuration not stated)	-17%
CCN(CC)S(=O)(=O)c1ccc(N2CCOCC2)c(NC(=O)C2CCCC2)c1	-4%
CC(C)(C)n1nnc(CCc2nnn(C(C)(C)C)n2)n1	2%
O=C(OCC(=O)N1CCCc2ccccc21)c1cccc(S(=O)(=O)N2CCOCC2)c1	7%
O=C1OCCN1/N=C\c1ccc([N+](=O)[O-])o1	-10%
CC(C)[C@H](NC(=O)N1CCn2c1nc1ccccc12)C(=O)N1CCCCC1	4%
C=C(C)C1Cc2c(C)nn(-c3cccc4cccnc34)c2C1 (configuration not stated)	-7%
CC(C)Cc1cc(C(=O)N2N=C(C(F)F)CC2(O)C(F)F)c2ccccc2n1 (configuration not stated)	5%
O=C(CCCCCCCC(=O)N1CCCCCC1)N1CCCCCC1	3%
O=C(C1CCCO1)N1CCN(S(=O)(=O)c2cc(F)ccc2F)CC1 (configuration not stated)	5%
O=C(CCc1nnc2n(Cc3ccccc3Cl)c(=O)c3ccccc3n12)Nc1ccc(F)c(F)c1	-8%
COCc1cc(C)nc2sc(C(=O)Nc3ccccc3Br)c(N)c12	0%
COc1ccc(NC(C)=O)cc1NC(=O)CSc1nnc(-c2ccccc2)n1N	-19%
O=C(O)c1c(-c2ccccc2)nnc2ccccc12	3%
CCCc1cc(=O)n2[nH]c(NCc3ccccc3Cl)nc2n1	-25%
Cc1ccc(-n2nnnc2-c2cnc3ccc(Cl)cc3c2-c2ccccc2)cc1	-18%
Cc1ccccc1-n1nc2c(c1NC(=O)c1ccc3c(c1)OCO3)CS(=O)(=O)C2	-3%
O=C(c1ccco1)N1CCN(Cc2cc(=O)c(OCc3ccc(F)cc3)co2)CC1	-11%
CNC(=O)c1ccccc1NC(=O)C1CC(=O)N(c2ccc(OC)cc2)C1 (configuration not stated)	-5%
COc1cc(/C=N/NC(=O)CC2(C)OCCO2)cc(Br)c1O	-14%
CCOc1ccc(NC(=O)c2ccc3c(=O)n4c(nc3c2)CCCCC4)cc1	-17%&4%
CC(C)CCOP(=O)(c1ccc(N(C)C)cc1)C(O)c1ccccc1F (configuration not stated)	3%
CCOP(=O)(OCC)C(NC(=O)Nc1ccc(Cl)c(Cl)c1)c1ccccc1 (configuration not stated)	7%
SMILES	VDR inh
COc1ccccc1N(C)S(=O)(=O)c1ccc(C)c(C(=O)NC(C)c2ccccn2)c1 (configuration not stated)	-9%
c1coc(-c2nnc3sc(Cc4cccs4)nn23)c1	0%
CC(C)n1nnnc1SCC(=O)N1N=C(c2cccs2)CC1c1cccs1 (configuration not stated)	-19%
CC(C)Oc1ccc(C(=O)NC2(C(F)(F)F)N=C3SCCN3C2=O)cc1 (configuration not stated)	-10%
O=C(NC1(C(F)(F)F)N=C(c2ccccc2)NC1=O)c1ccc(Cl)cc1Cl (configuration not stated)	-14%
COCCN=c1scc(C)n1/N=C/C1CC2C=CC1C2 (configuration not stated)	2%
O=C(/C=C/c1cccc([N+](=O)[O-])c1)Nc1ccccc1N1CCOCC1	5%
O=C(NC1CC(=O)N(c2ccc(F)cc2)C1)C(c1ccccc1)c1ccccc1 (configuration not stated)	17%
Cc1nn(C)cc1C1C2=C(CC(C)(C)CC2=O)OC2=C1C(=O)CC(C)(C)C2	-13%
Cc1[nH]c2ccccc2c1C(=O)COC(=O)Cn1cnc2ccccc21	1%
COc1cccc(C2CC(c3ccccc3Cl)Nc3nc(N)nn32)c1 (configuration not stated)	4%
COCCn1c(SCC(N)=O)nc2c(c1=O)SC(C)C2 (configuration not stated)	-8%
Cc1cc(Nc2ccc(Br)c(C)c2)n2nc(C)nc2n1	?
COc1ccc(C(=O)Nn2c(SCC(=O)c3ccccc3)nc3ccccc3c2=O)cc1	-5%
COc1ccc(N(C)S(=O)(=O)c2cccc(C(=O)Nc3ccc(N4CCOCC4)cc3)c2)cc1	-5%
COCCn1c(=NC(=O)c2ccc(S(=O)(=O)N3CCc4ccccc4C3)cc2)sc2cc(OC)ccc21	-9%
CC(=O)Nc1ccc(OCC(O)CN2CCN(c3cc(Cl)ccc3C)CC2)cc1 (configuration not stated)	1%
Cc1ccc(Oc2cc(NN3CCCCC3)c([N+](=O)[O-])cc2[N+](=O)[O-])c(Cl)c1	-11%
CCCCC(=O)OCC(=O)Nc1ccc(SC(F)F)cc1	-6%

Screening results as filed in PubChem.

These rows are one share of the data; the hit share may differ from the screen's.
